Screening data from PubChem.
A647 fluor = A647 region autofluorescence. Compound fluorescence, A647 channel (570/671 nm), Tris buffer. max dye-equivalent concentration, M. 59,000 tested, under 10 active. AID 592; active means above 1 µM dye equivalent; inconclusive means 0.1 to 1 µM; inactive means 0.1 µM or less;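 note: values scaled relative to a standard on each plate; highest value over a series up to 38 µM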
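Buffer was dispensed, compounds and Alexa 647 standards were pin-transferred, and plates sat 15 min at room temperature. Intensity at 570/671 nm was then converted to dye-equivalent concentration using the plate's A647 standard curve.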
AID923 = qHTS Assay for Allosteric/Competitive Inhibitors of Caspase-1: Spectroscopic Profiling in AFC Spectral Region | compound fluorescence, AFC spectral region (405/520 nm); almost no hit is shown here | Potency, µM (series often up to 57.5 µM), for inactives: top-dose fluorescence increase, usual class: activators | 75,000 compounds, 1.1% hits | AID 923, 2007; active = well fitted activation curve with a large enough effect; inconclusive = small, poorly fitted or top-dose-only effect;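 note: potency is the fitted concentration of half-maximal effect; 0% is about no effect; scaled to a free AFC standard on each plate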
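Compound autofluorescence profiled at 405 nm ex/520 nm em during kinetic caspase 1 run (50 nM enzyme, 5 uM Ac-WEHD-AFC, HEPES pH 7.5, 10 mM DTT). Titration up to 57 uM; baseline from regression intercept, normalized to AFC standard curve.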
TSHR agonist = agonists of human thyroid stimulating hormone receptor; P16473; 73,000 compounds, 0.48% hits; HEK293-CNG-TSHR cells (CNG channel as cAMP sensor), membrane potential dye, cAMP; Potency, µM (doses to about 57.1 µM), without a hit: top-dose activation, usual class: activators; AID 926; active = well fitted activation curve of enough size with the parental cells flat; inconclusive = any curve in the parental cells; inactive = parental cells flat and receptor cells flat or falling; note: potency is the fitted concentration of half-maximal effect; % of control where 0% means no effect; weak receptor curves with flat parental cells got no call and are not listed
Target sequence (P16473 whole entry, looked up): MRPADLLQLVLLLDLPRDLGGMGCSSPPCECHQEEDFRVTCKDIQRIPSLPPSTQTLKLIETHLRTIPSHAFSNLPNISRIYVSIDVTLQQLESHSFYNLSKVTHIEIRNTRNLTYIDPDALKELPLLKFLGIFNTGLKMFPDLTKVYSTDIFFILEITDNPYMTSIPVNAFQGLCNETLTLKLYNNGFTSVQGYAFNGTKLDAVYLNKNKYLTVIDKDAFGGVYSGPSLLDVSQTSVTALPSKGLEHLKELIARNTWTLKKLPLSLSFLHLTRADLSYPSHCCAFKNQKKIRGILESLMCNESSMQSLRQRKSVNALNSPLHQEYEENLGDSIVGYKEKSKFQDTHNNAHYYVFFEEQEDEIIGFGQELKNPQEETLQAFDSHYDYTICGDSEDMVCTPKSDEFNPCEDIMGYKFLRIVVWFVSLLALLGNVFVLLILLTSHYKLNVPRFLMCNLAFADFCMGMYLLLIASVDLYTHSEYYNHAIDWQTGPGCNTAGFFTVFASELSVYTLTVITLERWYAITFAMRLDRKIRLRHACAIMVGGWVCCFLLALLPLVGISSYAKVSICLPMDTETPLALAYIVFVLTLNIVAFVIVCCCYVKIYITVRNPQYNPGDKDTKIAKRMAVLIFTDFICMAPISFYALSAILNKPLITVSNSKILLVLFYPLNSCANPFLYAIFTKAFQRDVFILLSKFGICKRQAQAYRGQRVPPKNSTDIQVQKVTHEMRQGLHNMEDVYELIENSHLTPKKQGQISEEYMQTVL
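cAMP rise detected as CNG-channel membrane depolarization by fluorescent dye (emission 590 nm), 30 min after compound, following 60 min dye loading containing 100 uM RO 20-1724 at room temperature. Cells: TSHR/CNG HEK 293, with parental CNG HEK 293 as control.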
Resorufin fluor = resorufin region autofluorescence | Compound fluorescence, resorufin region 547/598 nm, buffer; hits give high values | 59,000 compounds, 0.04% hits | max dye-equivalent concentration, M; active = above 10 nM dye equivalent; inconclusive = 1 to 10 nM; inactive = 1 nM or less; a few of its hits are not listed in these tables; note: highest value over a series up to 38 µM
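Read-out: intrinsic compound fluorescence at ex 547/em 598 nm after 15 min at RT in pH 8.0 Tris (100 mM). Values expressed as resorufin-equivalent concentration from per-plate standard series.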
A488 fluor = compound autofluorescence in A488 spectral region; max dye equivalency, M; compound autofluorescence, A488 spectral region, dye equivalency; hits give high values; 59,000 compounds, 0.1% hits; active = above 10 nM dye equivalent; inconclusive = 1 to 10 nM; inactive = 1 nM or less; about half of its hits are not listed in these tables;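 note: highest value over a series up to 38 µM; compound alone in buffer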
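Autofluorescence read at ex 480/em 540 nm after 15 min RT in 100 mM Tris pH 8.0; compound signal normalized to A488 standard series on each plate, reported as dye-equivalent concentration at each test concentration.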
Numbers without * were called inactive; i = inactive; u = inconclusive; x = no result given; [ ] = remark or other dose.

Order of results: A647 fluor	AID923	TSHR agonist	Resorufin fluor	A488 fluor
O=C(CNC(=O)Cn1ccc2ccccc2c1=O)NCCCN1CCCCCC1
    1.51e-08	0.6%	0.1%	i	i
CN(C)CCNC(CC(=O)Nc1ccc(Cl)c(Cl)c1)C(=O)O (configuration not stated)
    1e-09	-1.4%	-4.7%	i	i
O=C(Nc1cccc2ccccc12)N1CCN(c2ccc(F)cc2)CC1
    x	0.0%	-0.2%	x	x
CCOC(=O)c1ccc(COC(=O)CNC(=O)CNC(=O)c2ccc(OC)cc2)o1
    1.13e-08	0.6%	0.2%	i	i
CC(=O)OCC1OC(c2ccccc2)C(OC(C)=O)C(OC(C)=O)C1OC(C)=O (configuration not stated)
    x	4.7%	u	x	x
O=C1c2ccccc2C(Nc2ccc(F)cc2F)N1CCN1CCOCC1 (configuration not stated)
    x	0.5%	9.9%	x	x
Cn1c(CCNC(=O)C(C)(C)C)nc2ccccc21
    1e-09	-1.0%	-2.7%[11.4 µM]	i	i
COc1cc(S(=O)(=O)NCc2ccccc2)ccc1F
    6.2e-09	0.2%	22.5%	i	i
Cc1c(N=C/C=C/c2ccccc2)cnn1C
    1.4e-09	-1.2%	4.7%	i	i
COc1ccc(C(c2nnnn2C(C)(C)C)N2CCN(c3nc4ccccc4s3)CC2)cc1 (configuration not stated)
    2.98e-08	-1.0%	10µM*	i	i
COc1ccc(OC)c(NC(=O)CSc2nnnn2-c2ccccc2F)c1
    9.9e-09	-0.3%	3.3%	i	i
COc1ccc(NC(=O)CSc2nnc(-c3ccccc3C)n2N)cc1
    1.35e-08	0.4%	-7.1%[11.4 µM]	i	i
Cc1cnc(CNc2cc(-c3cccnc3)ncn2)cn1
    2.2e-09	6.0%	-0.4%	i	i
O=C(Nc1ccc(NC(=O)C2CC2)nc1)c1ccncc1
    8.8e-09	1.2%	-2.5%	i	i
CC1(C(=O)NC2CCCC2)CCC(=O)N1Cc1cccs1 (configuration not stated)
    3.05e-08	-0.5%	4.5%	i	i
COC(=O)N1CCC2(CCCN(C(=O)Nc3cccc(C#N)c3)C2)CC1
    2.96e-08	1.9%	2.4%	i	i
O[C@H](C[C@@H]1CCCCN1)c1ccc2c(c1)oc1ccccc12
    1e-09	1.0%[11.5 µM]	-4.0%[11.4 µM]	i	i
CC(=O)c1c(C)cc(C)c(CSc2nc(C)cc(=O)[nH]2)c1C
    x	-0.2%	12.1%[11.4 µM]	x	x
O=S(=O)(Nc1nc2ccccc2s1)c1ccc(Br)s1
    1.01e-08	-0.5%	6.8%	i	i
CN(c1ccc(C(=O)NCCSCc2ccco2)cc1)S(C)(=O)=O
    1e-09	2.1%	-9.3%	i	i
Cc1noc(C)c1C(=O)N1CCC[C@@]2(CCN(Cc3cc(C(F)(F)F)cc(C(F)(F)F)c3)C2)C1
    4.9e-09	1.2%	2.4%	i	i
Cc1ccccc1-n1c(Cn2c(=O)sc3ccccc32)nnc1SCC(=O)N1CCCC1
    x	1.9%	6.0%	x	x
O=c1oc2c(CN3CCCCC3)c(O)ccc2c2c1CCCCC2
    4.7e-09	x	x	i	i
COc1c(F)c(F)c(C(=O)Nc2ccc(NC(=O)c3ccco3)cc2)c(F)c1F
    2.47e-08	1.6%	-8.4%	i	i
CC(C)=NNc1ncnc2nc[nH]c12
    5.28e-08	-0.9%[11.5 µM]	3.5%[11.4 µM]	i	i
CN(C)c1cccc(-c2nnc(SCCCC#N)o2)c1
    3.73e-08	-1.0%	-0.1%	i	i
Cc1ccc(C2CC(C(F)(F)F)n3ncc(C(=O)NCc4ccco4)c3N2)cc1 (configuration not stated)
    1.74e-08	-0.5%	-3.7%	i	i
O=C(NCc1ccccn1)c1cc(-n2cnnc2)ccc1Cl
    1e-09	-1.9%	2.6%	i	i
CCC(C)(C)NC(=O)C(c1ccncc1)N(Cc1cccs1)C(=O)Cn1nnc2ccccc21 (configuration not stated)
    1e-09	-2.6%	u	i	i
Cc1cnc(CNc2cc(-c3cccc(NS(C)(=O)=O)c3)ncn2)cn1
    4.27e-08	1.8%	2.6%	i	i
CCOC(=O)Cc1cnc(NC(=O)c2ccccc2)s1
    x	-0.5%	u	x	x
Cc1cc(NC(=O)CCC(=O)N(c2ccccc2)C2(C(=O)NC3CCCCC3)CCCC2)no1
    3.7e-09	-0.4%	0.7%[11.4 µM]	i	i
C=CCOc1cccc(C2c3c(oc4ccc(F)cc4c3=O)C(=O)N2CCCN2CCOCC2)c1 (configuration not stated)
    x	3.2%	1.8%	x	x
CSc1cccc(NC(=O)CN(C2CCCCC2)S(C)(=O)=O)c1
    1.44e-08	-0.1%	3.8%	i	i
CC(C)(C)C1=Nn2c(nnc2-c2ccccn2)SC1
    2.11e-08	x	x	i	i
O=c1nc(-c2ccccc2)c2cc(Cl)ccc2[nH]1
    3.59e-08	16.1%	-2.9%	i	i
O=C(C1CCCO1)N1CCN(S(=O)(=O)c2ccccc2)CC1 (configuration not stated)
    1.6e-09	-0.3%	0.9%	i	i
CC(NC(=O)c1ccco1)C(c1cccs1)N1CCN(c2ccc(F)cc2)CC1 (configuration not stated)
    3.7e-08	-0.4%	-0.6%	i	i
Cc1[nH]nc2c1C(c1ccc(OC(=O)c3ccco3)cc1)C(C#N)=C(N)O2 (configuration not stated)
    1e-09	-3.7%	2.3%	i	i
CC(=O)O[C@H]1C(=O)[C@]2(C)[C@H]([C@H](OC(=O)c3ccccc3)[C@@]3(O)C[C@H](OC(=O)[C@@H](O)[C@@H](NC(=O)c4ccccc4)c4ccccc4)C(C)=C1C3(C)C)[C@]1(OC(C)=O)CO[C@@H]1C[C@@H]2O
    1.64e-08	x	0.4%	i	i
CN1C=C(C(F)(F)F)C=C/C1=C(\C#N)c1nnc2n1CCCCC2
    3.4e-09	-2.1%	-1.7%	i	i
COc1ccc(CCNc2nc(C)nc3c2oc2ccccc23)cc1OC
    1.93e-08	0.2%	u	i	i
C/C(=N\NC(N)=S)c1ccc[nH]1
    1e-09	1.9%[11.5 µM]	-4.4%[11.4 µM]	i	i
Cc1nnc(NCCc2ccccc2)[nH]c1=O
    x	0.2%	-3.0%	x	x
COC(=O)c1ccc(CN2C(=O)NC3(CCC(C)CC3)C2=O)o1 (configuration not stated)
    7.9e-09	-1.4%	-1.4%	i	i
COc1ccc(C(=O)O)cc1F
    1e-09	-0.6%	10.6%	i	i
Cc1ccc(C(=O)C2=C(O)C(=O)N(c3ncccn3)C2c2ccc(Cl)cc2)o1 (configuration not stated)
    1e-09	x	x	i	i
CCN=C(Nc1ccc2c(c1)OCO2)SC1CC(=O)N(c2ccccc2F)C1=O (configuration not stated)
    x	2.4%	11.7%	x	x
CCOC(=O)C1CCN(C(c2cccc(F)c2)c2sc3nc(C)nn3c2O)CC1 (configuration not stated)
    x	2.0%	-2.8%	x	x
COC(=O)NC(c1ccc(F)cc1)C(C(C)=O)C(=O)OC (configuration not stated)
    x	-0.7%[11.5 µM]	2.5%[11.4 µM]	x	x
CCOCCCNCC(=O)N1CCN(S(=O)(=O)c2ccc(C)cc2)CC1
    1.94e-08	1.4%	3.5%	i	i
CCN(CC)CCNc1nc(-c2ccco2)c2c(c1C#N)CC(C)(C)OC2
    1e-09	x	x	i	i
COc1ccc(Cl)cc1N(CC(=O)Nc1ccc2c(c1)OCO2)S(C)(=O)=O
    x	-0.3%	-5.9%	x	x
Cc1ccccc1NC(=O)N1C2CCCC1CC(NC(=O)C1CC1)C2 (configuration not stated)
    2.73e-08	2.7%	6.1%	i	i
O=S(=O)(Nc1cccc2cccnc12)c1ccc(S(=O)(=O)N2CCCC2)cc1
    1e-09	1.6%	-0.8%	i	i
COc1ccc(C)cc1NC(=O)C1CC(=O)OC12CCCCC2 (configuration not stated)
    3.54e-08	-2.6%	9.2%	i	i
COc1ccccc1CC1(C)NC(=O)N(CC(=O)Nc2cc(C)on2)C1=O (configuration not stated)
    3.15e-08	0.0%	6.7%	i	i
COc1ccc(NC(C)=O)cc1NC(=O)CSc1nnc(-c2cccnc2)n1C
    1e-09	6.1%	-0.1%[11.4 µM]	i	i
CC(C)(C)c1ccc(OCC(=O)NC2CCS(=O)(=O)C2)cc1 (configuration not stated)
    3.4e-09	-0.3%	-2.1%	i	i
O=C(CSc1cccc(C(F)(F)F)c1)N1CCN(S(=O)(=O)c2ccccc2)CC1
    3.42e-08	-1.3%	5.1%	i	i

2 of the compounds above, as labelled records.
COc1ccc(Cl)cc1N(CC(=O)Nc1ccc2c(c1)OCO2)S(C)(=O)=O
  A647 fluor: x
  AID923: -0.3%
  TSHR agonist: -5.9%
  Resorufin fluor: x
  A488 fluor: x

Cc1ccccc1NC(=O)N1C2CCCC1CC(NC(=O)C1CC1)C2 (configuration not stated)
  A647 fluor: 2.73e-08
  AID923: 2.7%
  TSHR agonist: 6.1%
  Resorufin fluor: i
  A488 fluor: i

Carrying on:
Order of results: A647 fluor	AID923	TSHR agonist	Resorufin fluor	A488 fluor
CCOc1ccc(Nc2nc(C)cc(C)c2C#N)cc1
    1e-09	5.3%	6.6%	i	i
O=C(O)/C=C1\CCCc2ccccc2[C@H]1O
    x	1.6%	4.4%	x	x
O=C1CN(C(=O)CCCc2c[nH]c3ccccc23)c2ccccc2N1
    1e-09	-0.3%	4.5%	i	i
O=C(c1cc(-n2cnnc2)ccc1Cl)N1CCN(c2nc(-c3ccccc3)cs2)CC1
    5.22e-08	-0.3%	u	i	i
COC(=O)CN(n1cnnc1)S(=O)(=O)c1ccc(C)cc1
    3.2e-09	0.9%	-3.3%	i	i
CC1=C(C)CC(C(=O)N2CCN(Cc3ccccc3)CC2)C(C(=O)O)C1 (configuration not stated)
    2.66e-08	-0.1%	0.0%	i	i
CC(CCC(=O)O)(c1cc(Br)c(O)c(Br)c1)c1cc(Br)c(O)c(Br)c1
    1.93e-08	2.9%[11.5 µM]	u	i	i
CCOc1ccc(NS(=O)(=O)c2ccc(OCC(=O)N3CCCC3)cc2)cc1
    1.05e-08	-1.8%	3.5%	i	i
CCOC(=O)c1[nH]c2cc3c(cc2c1NC(=O)CN1CC(C)CC(C)C1)OCO3 (configuration not stated)
    1e-09	x	x	i	i
C=CCn1cnc2c(c1=O)c1nc3ccccc3nc1n2Cc1ccccc1
    1.09e-08	-0.4%	10.3%	i	i
COCc1cc(C)nc(Nc2ccc(C)cc2C)c1C#N
    x	6.9%	15.2%	x	x
O=C(CCCN1CCOCC1)c1ccc2c(c1)OCCO2
    3.42e-08	-0.2%	1.0%	i	i
Cc1ccc(C)c(C(=O)CC2(O)C(=O)N(C)c3ccccc32)c1 (configuration not stated)
    x	1.3%	4.7%[11.4 µM]	x	x
CCOc1nc(N(C)C)nc(-n2nnc(C(C)=O)c2C)n1
    2.61e-08	0.5%	-5.2%[11.4 µM]	i	i
COc1ccc(C2NC(=O)c3ccccc3O2)c(OC)c1OC (configuration not stated)
    3.13e-08	-1.1%	2.9%	i	i
O=C(O)C[C@H](Sc1ccccc1)c1ccccc1
    2.06e-08	3.3%[11.5 µM]	u	i	i
Cc1nn(C)c(C)c1S(=O)(=O)N1CCc2ccccc21
    1e-09	-0.7%	2.8%	i	i
CC1CCC(NC(=O)C2CCN(c3cnccn3)CC2)CC1 (configuration not stated)
    1.4e-09	-0.7%	-1.5%	i	i
Cn1nc(CC(=O)NC2CCCCCC2)c2ccccc2c1=O
    x	-1.4%	u	x	x
Cc1cc(C)n(-c2nc3ccccc3[nH]c2=O)n1
    6e-09	1.4%	5.2%	i	i
Cn1c(COc2ccccc2)nnc1SCC(=O)NCc1ccccc1
    8e-09	-0.6%	8.2%	i	i
CCCc1nc2oc3c(NCCN(C)C)ncnc3c2c2c1CCCC2
    4.03e-08	1.2%	u	i	i

An excerpt; the hit share may differ from the screen's.
